High-throughput results (PubChem BioAssay)
Resorufin autofl – compound fluoresces in the resorufin spectral region; Compound fluorescence, resorufin region 547/598 nm, buffer; stronger effect = higher value; max dye-equivalent concentration, M; 0.04% of 59,000 active; active = above 10 nM dye equivalent; inconclusive = 1 to 10 nM; inactive = 1 nM or less; a few of its hits are not listed in these tables; further: highest value over a series up to 38 µM
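Tris 100 mM pH 8.0; compound added, 15 min RT; CCD imager read, ex 547 nm/em 598 nm; signal normalized to resorufin standard curve (six concentrations per plate) as dye-equivalent concentration.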
A488 autofl – A488 region autofluorescence. compound autofluorescence, A488 spectral region, dye equivalency; stronger effect = higher value. max dye equivalency, M. 0.1% of 59,000 active; active = above 10 nM dye equivalent; inconclusive = 1 to 10 nM; inactive = 1 nM or less; about half of its hits are not listed in these tables;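 further: highest value over a series up to 38 µM; compound alone in buffer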
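Intrinsic compound fluorescence is measured in 100 mM Tris buffer at pH 8.0 following 15 min incubation at room temperature. Intensities at 480 nm excitation/540 nm emission are calibrated to an on-plate A488 concentration series, giving dye-equivalent concentrations.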
A647 autofl – A647 region autofluorescence. max dye-equivalent concentration, M. 59,000 tested, under 10 active. AID 592. Compound fluorescence, A647 channel (570/671 nm), Tris buffer; active means above 1 µM dye equivalent; inconclusive means 0.1 to 1 µM; inactive means 0.1 µM or less;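 further: values scaled relative to a standard on each plate; highest value over a series up to 38 µM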
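Buffer was dispensed, compounds and Alexa 647 standards were pin-transferred, and plates sat 15 min at room temperature. Intensity at 570/671 nm was then converted to dye-equivalent concentration using the plate's A647 standard curve.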
TSHR agonist – agonists of human thyroid stimulating hormone receptor; P16473; 0.48% of 73,000 active; HEK293-CNG-TSHR cells (CNG channel as cAMP sensor), membrane potential dye, cAMP; Potency, µM (doses to about 57.1 µM), for the others: top-dose activation, most hits filed as activators; active = well fitted activation curve of enough size with the parental cells flat; inconclusive = any curve in the parental cells; inactive = parental cells flat and receptor cells flat or falling; further: potency means the concentration at half of the fitted maximal effect; % of control where 0% means no effect; weak receptor curves with flat parental cells got no call and are not listed
Target sequence (P16473 whole entry, looked up): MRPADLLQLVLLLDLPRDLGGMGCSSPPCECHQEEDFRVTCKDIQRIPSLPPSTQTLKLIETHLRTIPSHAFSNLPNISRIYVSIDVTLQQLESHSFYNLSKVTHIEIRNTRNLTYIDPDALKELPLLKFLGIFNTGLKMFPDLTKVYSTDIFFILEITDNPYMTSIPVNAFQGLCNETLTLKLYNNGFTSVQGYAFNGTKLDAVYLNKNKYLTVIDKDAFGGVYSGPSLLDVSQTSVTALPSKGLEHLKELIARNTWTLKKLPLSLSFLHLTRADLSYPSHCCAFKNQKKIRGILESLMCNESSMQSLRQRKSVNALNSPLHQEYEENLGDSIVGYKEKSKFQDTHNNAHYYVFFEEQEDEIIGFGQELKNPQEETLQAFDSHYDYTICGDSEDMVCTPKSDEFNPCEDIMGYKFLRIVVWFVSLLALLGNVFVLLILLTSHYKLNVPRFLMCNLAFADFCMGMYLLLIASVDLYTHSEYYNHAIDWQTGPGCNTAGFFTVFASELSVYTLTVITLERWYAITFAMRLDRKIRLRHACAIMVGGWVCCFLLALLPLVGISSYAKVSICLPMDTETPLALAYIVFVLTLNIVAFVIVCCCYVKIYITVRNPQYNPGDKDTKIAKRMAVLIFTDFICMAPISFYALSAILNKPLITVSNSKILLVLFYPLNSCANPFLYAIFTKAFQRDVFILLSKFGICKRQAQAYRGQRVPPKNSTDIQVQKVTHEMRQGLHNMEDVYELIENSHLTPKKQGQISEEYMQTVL
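HEK 293 cells stably expressing TSHR and a cAMP-gated CNG channel; parental CNG-only cells as counterscreen. Cells preloaded 60 min with membrane potential dye plus 100 uM RO 20-1724, then compound 30 min; fluorescence read at 590 nm.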
AID923 – qHTS Assay for Allosteric/Competitive Inhibitors of Caspase-1: Spectroscopic Profiling in AFC Spectral Region | compound fluorescence, AFC spectral region (405/520 nm); almost no hit is shown here | Potency, µM (top dose mostly 57.5 µM), without a hit: at the highest dose fluorescence increase, usual class: activators | 1.1% of 75,000 active | AID 923, 2007; active means well fitted activation curve with a large enough effect; inconclusive means small, poorly fitted or top-dose-only effect;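 further: potency means the concentration at half of the fitted maximal effect; 0% is about no effect; scaled to a free AFC standard on each plate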
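Baseline compound fluorescence (AFC region, 405 nm ex/520 nm em) taken from the intercept of kinetic reads with 50 nM caspase-1 and 5 uM Ac-WEHD-AFC; normalized to an on-plate AFC standard curve; compounds titrated up to 57 uM.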
* = called active by the depositor; i = inactive; ? = inconclusive; . = no result given; & = joins results of further samples; [ ] = remark or other dose.

The line under a structure holds: A647 autofl	AID923	A488 autofl	TSHR agonist	Resorufin autofl
[1] COc1ccc(CNC(=O)c2cc(-c3ccc(OC)c(OC)c3)on2)cc1
    1e-09	-1.2%	i	-5.7%[11.4 µM]	i
[2] O=C(c1ccco1)N1CCC(c2ccccc2)C1 (centres undefined)
    .	0.5%	.	-4.0%	.
[3] COC(=O)c1ccc(/C=N/n2cnnc2)cc1
    .	2.2%	.	6.1%	.
[4] Cn1c(SCC(=O)NCc2ccco2)nnc1-c1cccs1
    1.2e-09	0.7%	i	7.2%	i
[5] CCCC(=O)Nc1ccc2oc(-c3cccnc3)nc2c1
    6e-09	-0.5%	i	1.1%	i
[6] COC(=O)\C(C(C)=O)=C(/C=C/C=C/N(C)C)N(C)C
    2.33e-08	2.3%	i	1.5%	i
[7] Cc1ccc(Nc2nc(CSc3nnc(-c4cccs4)o3)cs2)cc1
    1e-09	1.0%	i	9.3%	i
[8] Cc1ccc2c(CC(=O)NCc3ccco3)coc2c1C
    4.35e-08	-2.1%	i	20µM*	i
[9] COc1cccc(-c2nn3c(-c4cccc(C)c4)nnc3s2)c1
    1.44e-08	-1.5%	i	?	i
[10] Cn1c(=O)c2c(SCC(=O)NCc3ccco3)nc(CC(C)(C)C)nc2n(C)c1=O
    .	0.0%	.	?	.
[11] CC(=O)c1cccc(NC(=O)Nc2cnn(Cc3ccc(F)cc3)c2)c1
    1e-09	-1.0%	i	-9.2%	i
[12] Cc1cc(-c2ccccc2)c(C#N)c(N)n1
    .	10.3%	.	5.2%	.
[13] Cc1cc(C)n(-c2ncnc3sc4c(c23)CC(C)CC4)n1 (centres undefined)
    .	0.6%	.	?	.
[14] NC(Cc1cccc2nsnc12)C(=O)O (centres undefined)
    7.7e-09	1.6%	i	-8.3%	i
[15] O=C(Nc1cccc(C(F)(F)F)c1)c1ccco1
    1e-09	-0.8%	i	?	i
[16] O=c1n(Cc2ccc(Cl)cc2)c2sc3c(c2c2ncnn12)CCCC3
    4.4e-09	-0.1%	i	?	i
[17] O=C(NCc1ccncc1)c1ccc(Br)cc1
    .	2.7%	.	5.5%[11.4 µM]	.
[18] O=S(=O)(c1ccc2nc(Cc3cccc(C(F)(F)F)c3)[nH]c2c1)N1CCOCC1
    1.4e-09	-1.7%	i	5.2%[11.4 µM]	i
[19] Cn1c2ccccc2c2ncn(CCN3CCOCC3)c(=O)c21
    1e-09	1.5%	i	29.7%	i
[20] O=C(NCc1n[nH]c(=S)n1-c1ccccc1)c1ccc(S(=O)(=O)N2CCOCC2)cc1
    2.46e-08	-0.1%	i	2.2%	i
[21] O=C(Cn1cnc2ccccc2c1=O)OCCCCN1C(=O)c2ccccc2C1=O
    1e-09	-0.7%	i	-0.9%[11.4 µM]	i
[22] Cc1cc(C(=O)N2CCN(C/C=C/c3ccccc3)CC2)no1
    4.37e-08	1.9%	i	.	i
[23] O=C(C1CCCN(S(=O)(=O)Cc2ccccc2)C1)N1CCCCC1 (centres undefined)
    2.31e-08	0.1%	i	3.2%	i
[24] COc1ccc(-c2nnc(SCC(=O)NCc3ccco3)n2C)cc1
    6.12e-08	-0.5%	i	4.3%	i
[25] COc1ccc(C(=O)CSc2nnc(CNc3ccc(C)cc3C)o2)cc1
    5.9e-09	0.5%	i	?	i
[26] N#Cc1c(NC(=O)CSc2nc(-c3ccco3)cc(C(F)(F)F)n2)sc2c1CCCC2
    1e-09	0.7%	i	3.4%	i
[27] O=C(C[C@@H](c1ccccc1)N1CCCCC1)c1ccccc1
    1.8e-08	1.5%[11.5 µM]	i	0.4%[11.4 µM]	i
[28] c1ccc2c(c1)nc(NCC1CCCO1)c1nnnn12 (centres undefined)
    .	8.8%	.	-2.8%	.
[29] COc1ccc(C(=O)c2ccc(N3CCOCC3)cc2)c(OC)c1
    2.87e-08	.	i	.	i
[30] CC(CNCc1ccc2c(c1)OCO2)NCc1ccc2c(c1)OCO2 (centres undefined)
    .	-1.6%	.	?	.
[31] O=c1[nH]c2cc(Cl)c(Cl)cc2[nH]c1=O
    2.09e-08	-2.0%&-4.3%	i	.	i
[32] COC(=O)CCNc1ccc2c(c1)OCCO2
    1.61e-08	0.8%	i	2.3%	i
[33] COC(=O)[C@@]1(Cc2ccc(F)cc2)[C@H]2c3cc(C(=O)N4CCCC4)n(CCCNc4ncc(C(F)(F)F)cc4Cl)c3C[C@H]2CN1C(=O)c1ccccc1
    .	0.3%	.	?	.
[34] Cc1nnc(C)n1/N=C/c1cc(Br)cc(Br)c1O
    1e-09	.	i	.	i
[35] CS(=O)(=O)Nc1cccc(-c2nc(Nc3ccc(F)cc3)c3ccccc3n2)c1
    2.5e-09	-0.1%	i	25.1µM*	i
[36] CCOC(=O)C1C(=O)C=C(C)C(C(=O)OCC)C1c1ccc(OC)cc1 (centres undefined)
    1.8e-09	-1.0%	i	?	i
[37] COC(=O)c1oc2ccc(OC)cc2c1N
    4.6e-09	3.7%	i	30.0%	i
[38] COc1ccc(OC)c2sc(NC(=O)C(C)C)nc12
    .	5.3%	.	6.6%	.
[39] CC(=O)c1ccc(OCCCC(=O)n2nnc3ccccc32)cc1
    3.07e-08	-0.3%	i	0.7%	i
[40] CC1Cc2ccccc2N1S(=O)(=O)c1cccc2nsnc12 (centres undefined)
    3.58e-08	0.7%	i	?	i

Looked up by compound from the list above, 2 records:
The line under a structure holds: A647 autofl	AID923	A488 autofl	TSHR agonist	Resorufin autofl
[25] COc1ccc(C(=O)CSc2nnc(CNc3ccc(C)cc3C)o2)cc1
    5.9e-09	0.5%	i	?	i
[23] O=C(C1CCCN(S(=O)(=O)Cc2ccccc2)C1)N1CCCCC1 (centres undefined)
    2.31e-08	0.1%	i	3.2%	i

Continued.
The line under a structure holds: A647 autofl	AID923	A488 autofl	TSHR agonist	Resorufin autofl
[41] NC(=O)C1(N2CCCCC2)CCN(Cc2nc3ccccc3c(=O)[nH]2)CC1
    3.6e-09	-0.3%	i	2.1%	i
[42] CC(C)CCn1c(Br)nc2c1c(=O)n(CC(N)=O)c(=O)n2C
    1e-09	-0.8%	i	5.4%	i
[43] O=S1(=O)C=C(Sc2nc3ccccc3s2)c2ccccc21
    4.36e-08	1.2%	i	1.3%	i
[44] CC(=O)Oc1ccc(NC(=O)CSc2ccccc2)cc1
    1.34e-08	0.0%	i	?	i
[45] Cn1cnnc1SCNC(=O)C(F)(F)F
    1.75e-08	-1.0%	i	-8.1%	i
[46] COc1cccc(Cn2c(=O)c(-c3cccc(Cl)c3)nc3cncnc32)c1
    1e-09	4.7%	i	-6.4%	i
[47] N#Cc1nc(Cc2cccc3ccccc23)oc1NCCN1CCCCC1
    1e-09	0.9%	i	-7.0%	i
[48] O=C(COC(=O)c1cccs1)NCc1ccco1
    2.05e-08	0.9%	i	-0.3%	i
[49] CCN(CC(=O)Nc1ccc2c(c1)OCCO2)C(=O)c1cccc(S(=O)(=O)N2CCOCC2)c1
    4.55e-08	0.2%	i	4.9%	i
[50] CC1CC(c2ccccc2)n2nc(NC(=O)c3cccs3)nc2N1 (centres undefined)
    3.2e-09	-0.4%	i	6.9%	i
[51] COc1cccc(C2CC(=O)Nc3cc(OC)c(OC)c(OC)c32)c1OC (centres undefined)
    3.85e-08	2.2%	i	5.6%[11.4 µM]	i
[52] CCOC(=O)c1nnn(-c2nonc2-n2cccc2)c1C
    5.6e-09	0.6%	i	8.8%	i
[53] CCN(CC)CCCC(C)n1c(-c2ccccc2)nc2c(NCc3ccccc3)nc(C)nc21 (centres undefined)
    .	0.8%	.	16.2%	.
[54] O=C(c1noc2c1CCCC2)N1CCN(C(c2ccccc2)c2ccccc2)CC1
    3.5e-09	2.3%	i	8.5%	i
[55] O=C(NC1CC1)C1CCN(c2ccc(S(=O)(=O)N3CCOCC3)cc2Cl)CC1
    2.82e-08	0.0%	i	-4.4%	i
[56] O=C(C1CCN(Cc2ccc(F)cc2)CC1)N(CCO)Cc1ccccc1
    1.44e-08	-2.1%	i	-4.5%	i
[57] Cc1ccc(-c2c(C#N)c(N)nc3c2CCCCCC3)o1
    .	3.6%	.	18.6%	.
[58] Cc1ccc(S(=O)(=O)N2CCN(C(=O)c3cc(=O)[nH]c4ccccc34)CC2)c(C)c1
    9.8e-09	-0.7%	i	18.1%[11.4 µM]	i
[59] COc1ccc(NC(=O)CNCCC2=CCCCC2)cc1
    1e-09	1.7%	i	.	i
[60] COc1ccc(OCCn2c(NC(=O)c3ccco3)nc3ccccc32)cc1
    .	2.0%	.	?	.
[61] CSc1ccc(Cl)c(C(=O)NCc2ccco2)c1
    .	1.4%	.	6.3%	.
[62] CC1(C)Cc2c(c(=S)nc(-c3ccccc3)n2CCOCCO)CO1
    1.26e-08	-0.7%	i	5.8%	i
[63] CC(=O)N1CCN=C1SCc1ccccc1Cl
    .	-2.9%	.	2.3%	.
[64] Clc1ccc(C=NC23CN4CN(CN(C4)C2)C3)cc1
    .	1.2%	.	-4.8%	.
[65] CCC(=O)n1nc(-c2cccnc2)nc1NCc1ccc(OC)cc1
    4.3e-08	1.0%	i	.	i
[66] CCNC(=O)COc1ccc(Br)cc1Cl
    1e-09	-0.2%	i	?	i
[67] Cc1ccc(S(=O)(=O)N2CCN(S(=O)(=O)N3CCCCC3)CC2)cc1
    1e-09	-3.8%	i	-3.8%	i
[68] CCCCN(C(=O)NC(=O)Nc1ccccc1OC)S(C)(=O)=O
    3.4e-08	-2.1%	i	6.6%	i
[69] COc1ccccc1Nc1nc(N)nc(CN(C)C2CCCCC2)n1
    1e-09	-1.3%	i	15.3%	i
[70] CCOC(=O)c1c(CNCCN(CC)CC)n(C)c2cc(Br)c(OC)cc12
    1e-09	.	i	.	i
[71] O=C(c1ccc2c(=O)n(Cc3ccc4c(c3)OCO4)c(=S)[nH]c2c1)N1CCCCC1
    1e-09	4.1%	i	?	i
[72] COCCn1c(SCC(=O)Nc2cc(C)cc(C)c2)nnc1C(C)C
    1e-09	-1.7%	i	10.1%	i
[73] O=C(CCC(=O)N(CC(=O)NC1CCCCC1)Cc1ccco1)Nc1nccs1
    3.3e-09	1.1%	i	12.1%	i
[74] Cc1noc(NS(=O)(=O)c2ccc(NC(=O)CSc3nc4c(cc3C#N)CCC4)cc2)c1C
    .	-1.2%	.	?	.
[75] COc1cccc(OCC(O)CO)c1 (centres undefined)
    1e-09	-1.1%	i	?	i
[76] O=C(O)/C(Cc1ccnc2ccccc12)=N\O
    2.6e-09	1.6%[11.5 µM]	i	6.1%[11.4 µM]	i
[77] Cc1ccccc1C(=O)Nc1cccc(NC(=O)Cn2cnc3c(=O)n(C)c(=O)n(C)c32)c1
    8.1e-09	-2.2%	i	3.9%	i
[78] O=C(CCc1nc2ccccc2c(=O)[nH]1)OCC(=O)N1CCN(S(=O)(=O)c2ccccc2)CC1
    3.56e-08	0.1%	i	-4.7%	i
[79] Cc1ccnc(NC(=O)CCC(=O)N(CC(=O)NC2CCCCC2)CC2CCCO2)c1 (centres undefined)
    1.24e-08	0.6%	i	-4.4%	i
[80] CN(CC(=O)NC1CCCCC1)S(=O)(=O)c1ccc(Br)s1
    1.8e-08	-0.2%	i	6.9%	i
[81] CC1(C)S[C@@H]2[C@H](NC(=O)C(N)c3ccccc3)C(=O)N2[C@H]1C(=O)O (some centres undefined)
    1e-09	-0.9%[25.7 µM]	i	-17.6%[25.6 µM]	i
[82] COc1ccc(-c2ccc(S(=O)(=O)N3CCOCC3)cc2)cc1
    1.6e-09	-0.2%	i	16.5%	i

The list is partial (hit frequency here may not be typical).
